BmaI1 enzyme – BmaI1 acyl-homoserine lactone synthase inhibition – biochemical, fluorescence intensity, with counterscreen (AID 720554); BmaI1 enzyme assay, fluorescence intensity; hits give high values; test concentration not given here; a few actives read low; strong numbers were not always called active; inhibition, %; 12,000 compounds, 0.4% hits;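 active = both replicates within 2 robust z-scores of the inhibited control and a quiet counterscreen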;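 also: 0% = uninhibited enzyme and 100% = inhibited control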
BmaI1 enzyme counterscreen – recorded beside BmaI1 enzyme, whose call it bears; inhibition, %; measured here: counterscreen; design of the counterscreen not given here;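 first of two replicates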
Numbers without * were called inactive. A portion of the library; the hit share may differ from the screen's.

SMILES | BmaI1 enzyme | BmaI1 enzyme counterscreen
CCCNC(=O)c1cc(Cl)c2c(c1)OCO2 | 4.5 | 1.0
CCN(CC)S(=O)(=O)c1ccc(NCC(=O)Nc2ccc(S(=O)(=O)N(C)C)cc2)cc1 | 6.0 | 4.0
NC(=O)c1ccsc1NC(=O)CSc1ncnc2sc3c(c12)CCCC3 | 27.0 | 25.5
O=C(/C=C/c1ccco1)OCC(=O)c1cc2c3c(c1)CC(=O)N3CCC2 | -5.5 | -10.5
CCCn1c(C)cc(C(=O)COC(=O)c2ccc(C#N)cc2)c1C | 38.0 | 7.5
CN1CCCCC1CCN1c2ccccc2Sc2ccc(S(C)=O)cc21 (stereo not drawn) | 9.0 | 8.5
Cc1cccc(-c2nnc(SCC(N)=O)n2C2CCCCC2C)c1 (stereo not drawn) | 7.5 | 4.0
COc1ccc(-c2ccc(Cc3cn4ccsc4n3)o2)cc1OC | 5.0 | 11.0
CN(C(=O)CSc1nnc(-c2ccccc2)o1)c1ccccc1 | 15.5 | 14.0
CC(C)(C)C(=O)COC(=O)[C@@H]1CC(O)CN1S(=O)(=O)c1ccc(F)cc1 (stereo partly drawn) | -7.5 | -10.5
CCn1c(=O)c(C(=O)CN(C)Cc2ccc(F)cc2)c(N)n(Cc2ccccc2)c1=O | -3.0 | -0.5
O=C(Cn1ccc(=O)[nH]c1=O)NCc1ccc(Cl)cc1 | 5.0 | 6.0
Cc1ccc(CN(C)C(=O)Cc2csc(-c3ccccc3)n2)o1 | 23.0 | 4.5
CCN(CC)CCn1c(NC(=O)c2cc3c(s2)CCCC3)nc2ccccc21 | 6.5 | -5.0
Cc1ccccc1Nc1nc(N)nc(CSCc2c(C)noc2C)n1 | 11.5 | 10.0
CN1/C(=C\C(=O)COC(=O)C2CCN(S(=O)(=O)c3ccc4c(c3)OCCO4)CC2)C(C)(C)c2ccccc21 | 2.0 | 4.5
Cc1cc(NC(=O)COC(=O)CCc2c[nH]c3ccccc23)no1 | 11.0 | 0.5
COc1ccccc1CNC(=O)[C@@H]1CC(O)CN1C(=O)C12CC3CC(CC(C3)C1)C2 (stereo partly drawn) | 14.0 | 14.0
CCOCCCn1c(SCc2ccccc2)nnc1-c1ccncc1 | 9.5 | 4.0
O=C(NC(O)C(=O)c1ccccc1)c1ccc(F)cc1 (stereo not drawn) | -8.0 | -8.0
CC(C)CN(C(=O)COc1ccc(F)cc1)C1CCS(=O)(=O)C1 (stereo not drawn) | 11.0 | 0.0
CCC(CO)n1c(SCc2cc(=O)oc3cc(C)ccc23)nc2ccccc2c1=O (stereo not drawn) | 25.5 | 6.5
COC(=O)COC(=O)c1ccc2[nH]c(=O)c(=O)[nH]c2c1 | 5.5 | -5.5
CN1CCC(N(C)C(=O)/C=C/c2cn(-c3ccccc3)nc2-c2cccnc2)CC1 | 24.5 | 6.0
O=C(CCCn1c(=O)oc2ccccc21)N1CCN(S(=O)(=O)c2ccc3c(c2)CCC3)CC1 | 4.5 | -2.5
Nc1ccn([C@H]2CC[C@@H](CO)O2)c(=O)n1 | 1.0 | -8.5
COC(=O)c1ccccc1NC(=O)c1c(Cl)nc2sccn12 | 9.5 | 12.0
O=C(NCc1ccccc1F)C1CC(=O)N(Cc2ccco2)C1 (stereo not drawn) | 12.0 | 3.0
OC(c1cccc(C(F)(F)F)c1)c1nnc(-c2ccccc2)o1 (stereo not drawn) | 11.5 | 6.0
COCCOc1ccc(C(F)(F)F)cc1NC(=O)c1ccc2c(=O)n3c(nc2c1)CCC3 | -3.0 | -5.0
CC(OC(=O)C1=COCCO1)C(=O)Nc1ccccc1C#N (stereo not drawn) | 15.5 | 8.5
C=C1c2ccccc2NC(=S)N1C | 6.0 | 15.5
O=C(CSc1nc2ccccc2c(=O)n1Cc1ccco1)N1CCc2ccccc21 | 8.5 | 5.5
Fc1ccc(CSc2nnc(-c3ccco3)o2)c(Cl)c1 | 4.5 | -5.5
CN1CCc2nc3ccccc3c(C(=O)OCC(=O)NCc3ccccc3)c2C1 | -4.0 | -10.0
CC(=O)N1CC(C(=O)N2CCN(S(=O)(=O)c3ccccc3C#N)CC2)Oc2ccccc21 (stereo not drawn) | 24.0 | 5.0
O=C(Nc1nc2ccccc2[nH]1)C1CCCC1 | -1.5 | -6.5
CN(CC(=O)Nc1ccccc1Cl)CC1COc2ccccc2O1 (stereo not drawn) | 7.0 | -0.5
Cc1noc(C)c1CC(=O)Nc1cc(C(F)(F)F)ccc1NC1CCCCC1 | 3.5 | -7.0
O=C(NCCC(=O)N1CCN(c2ncccn2)CC1)c1ccccc1Cl | 16.5 | 8.0
O=C1C(Cc2cc(Cl)ccc2Cl)S/C(=N\N=C\c2ccccc2O)N1Cc1ccco1 (stereo not drawn) | 4.0 | -1.0
NC(=S)N/N=C1/C(=O)c2cccc3cccc1c23 | 42.5 | 18.0
O=C(OCC(=O)N1CCCCC1)c1ccc(NS(=O)(=O)c2ccc3c(c2)OCCO3)cc1 | 1.5 | -0.5
O=C1CN(C(=S)Nc2ccc(F)cc2)CCN1 | 2.5 | 11.5
CC(=O)Nc1ccc(SCC(=O)N2CCCCC2C)cc1 (stereo not drawn) | 19.0 | 11.0
CCCN(CC(=O)Nc1cc(C)on1)CC(=O)Nc1ccc(F)c(F)c1F | -14.5 | -12.0
COCC(C)n1c(SCc2ccccc2C#N)nc2ccccc2c1=O (stereo not drawn) | 9.5 | 6.5
CC(C(=O)Nc1ccc(Cl)cc1Cl)N1CCCN(c2ccc(C(F)(F)F)cn2)CC1 (stereo not drawn) | 5.5 | 2.0
CC(C)(C)NCC(=O)Nc1ccccc1-c1ccccc1 | -12.5 | -6.5
CN(CC(=O)Nc1ccc2c(c1)CCC2)Cc1cccc(F)c1 | 3.5 | -0.5

Laid out differently: results already given
Order of values – BmaI1 enzyme	BmaI1 enzyme counterscreen
CCOCCCn1c(SCc2ccccc2)nnc1-c1ccncc1
    9.5	4.0
O=C(NC(O)C(=O)c1ccccc1)c1ccc(F)cc1 (stereo not drawn)
    -8.0	-8.0
CC(C)CN(C(=O)COc1ccc(F)cc1)C1CCS(=O)(=O)C1 (stereo not drawn)
    11.0	0.0
CCC(CO)n1c(SCc2cc(=O)oc3cc(C)ccc23)nc2ccccc2c1=O (stereo not drawn)
    25.5	6.5
COC(=O)COC(=O)c1ccc2[nH]c(=O)c(=O)[nH]c2c1
    5.5	-5.5
CN1CCC(N(C)C(=O)/C=C/c2cn(-c3ccccc3)nc2-c2cccnc2)CC1
    24.5	6.0
O=C(CCCn1c(=O)oc2ccccc21)N1CCN(S(=O)(=O)c2ccc3c(c2)CCC3)CC1
    4.5	-2.5
Nc1ccn([C@H]2CC[C@@H](CO)O2)c(=O)n1
    1.0	-8.5
COC(=O)c1ccccc1NC(=O)c1c(Cl)nc2sccn12
    9.5	12.0
O=C(NCc1ccccc1F)C1CC(=O)N(Cc2ccco2)C1 (stereo not drawn)
    12.0	3.0
OC(c1cccc(C(F)(F)F)c1)c1nnc(-c2ccccc2)o1 (stereo not drawn)
    11.5	6.0
COCCOc1ccc(C(F)(F)F)cc1NC(=O)c1ccc2c(=O)n3c(nc2c1)CCC3
    -3.0	-5.0
CC(OC(=O)C1=COCCO1)C(=O)Nc1ccccc1C#N (stereo not drawn)
    15.5	8.5
C=C1c2ccccc2NC(=S)N1C
    6.0	15.5
O=C(CSc1nc2ccccc2c(=O)n1Cc1ccco1)N1CCc2ccccc21
    8.5	5.5
Fc1ccc(CSc2nnc(-c3ccco3)o2)c(Cl)c1
    4.5	-5.5
CN1CCc2nc3ccccc3c(C(=O)OCC(=O)NCc3ccccc3)c2C1
    -4.0	-10.0
CC(=O)N1CC(C(=O)N2CCN(S(=O)(=O)c3ccccc3C#N)CC2)Oc2ccccc21 (stereo not drawn)
    24.0	5.0

Further results:
SMILES | BmaI1 enzyme | BmaI1 enzyme counterscreen
Cc1ccccc1Nc1nc(N)nc(COC(=O)Cn2[nH]c(=O)c3ccccc3c2=O)n1 | 13.0 | 7.5
O=C(CSc1ccc2c(c1)OCCO2)NCc1ccco1 | 20.5 | 6.0
O=C(OCc1cc(=O)n2cc(Br)ccc2n1)C1=COCCO1 | 37.0 | -5.5
N#Cc1c(N)sn(-c2ccccc2)c1=S | 101.5* | 11.5*
Oc1ccc(C2(c3ccccc3O)CCCCC2)cc1 | 16.0 | 2.0
CN(Cc1ccc(-c2ccc(Cl)cc2)o1)C(=O)CC1Oc2ccccc2NC1=O (stereo not drawn) | 5.5 | -5.5
CCCN(CC1CC1)C(=O)CSc1nc(N)cc(N)n1 | -12.5 | 4.5
Cc1ccnc2nc(C(=O)Nc3ccc(S(=O)(=O)N4CCCC4)cc3)nn12 | -11.5 | -8.5
CC1CCC(C(C)C)C(OC(=O)COC(=O)c2cc(=O)[nH]c(=O)[nH]2)C1 (stereo not drawn) | 11.5 | 3.5
O=C(C1CC(O)CN1S(=O)(=O)c1ccc2ccccc2c1)N1CCc2ccccc2C1 (stereo not drawn) | 8.0 | 6.5
Clc1ccc(OCc2cn3cccnc3n2)cc1 | 11.5 | 4.5
CCC1(c2ccccc2)C(=O)NCNC1=O | 3.5 | 21.5
COc1ccc(C)cc1-n1c(=O)c2ccccc2n2c(SCc3cc(=O)n4c(C)csc4n3)nnc12 | 21.5 | 12.0
CCn1c(Cn2nc(C(=O)O)c3ccccc3c2=O)nc2cc(S(=O)(=O)N(C)C)ccc21 | 24.5 | 5.5
O=C(OCC(=O)N1CCCCC1)c1ccc(-c2nc3ccccc3s2)s1 | -8.0 | -9.5
COc1ccc(/C=C2\SC(=O)N(CCNC(=O)[C@@H]3CCCN3C(=O)OC(C)(C)C)C2=O)cc1 | 14.5 | 3.0
Cc1ccc2nc(SCN3C(=O)c4ccccc4C3=O)[nH]c2c1 | 7.5 | -4.5
CN(C)CCCNc1nc2ccccc2nc1NS(=O)(=O)c1ccc(Cl)cc1 | 10.5 | 0.5
Cc1cc(C(=O)COC(=O)C2=NNC(=O)CC2)c(C)n1-c1ccccc1 | 12.0 | 1.5
O=C(N/N=C1\CCc2ccccc21)c1ccc(F)cc1 | 32.5 | 7.0
CCc1ccc(-c2nc(=S)n(CN3CCN(S(=O)(=O)c4cccs4)CC3)[nH]2)cc1 | 90.0 | 78.5
CCN(CC)S(=O)(=O)c1ccc(N=c2ccccn2C)cc1 | 6.0 | 6.5
COc1ccc(-c2[nH]nc(-c3ccccc3)c2-c2ncc[nH]2)cc1 | 7.5 | 3.0
CCN1CCCC1CNc1ccc(S(=O)(=O)N2CCCC2)cn1 (stereo not drawn) | 13.5 | 2.5
CC(=O)N1CCN(C(=S)Nc2ccc(F)cc2)CC1 | 2.5 | 12.0
O=C(NCC1CCCCN1)c1cc(OCC(F)(F)F)ccc1OCC(F)(F)F (stereo not drawn) | 18.0 | 48.0
NNC(=O)CNC(=O)C12CC3CC(CC(C3)C1)C2 | 4.0 | 1.5
NS(=O)(=O)c1cc(Cl)c(NC(=O)CSC2CCCC2)c(Cl)c1 | 7.5 | 13.0
C=CCN1C(=O)c2ccc(C(=O)OCC(=O)c3cc(C)n(C)c3C)cc2C1=O | -9.5 | -13.5
CC(=O)NC[C@H]1CN(c2ccc(N3CCOCC3)c(F)c2)C(=O)O1 | 3.0 | 4.0

Two entries from above, as a markdown table:
| Compound | BmaI1 enzyme | BmaI1 enzyme counterscreen |
| --- | --- | --- |
| NNC(=O)CNC(=O)C12CC3CC(CC(C3)C1)C2 | 4.0 | 1.5 |
| NS(=O)(=O)c1cc(Cl)c(NC(=O)CSC2CCCC2)c(Cl)c1 | 7.5 | 13.0 |

Continuation.
SMILES | BmaI1 enzyme | BmaI1 enzyme counterscreen
Cc1c(Cl)cn2c(=O)cc(CN3CCN(Cc4ccc5c(c4)OCO5)CC3)nc2c1Cl | -6.0 | -11.5
Cc1noc(C)c1COc1cccc(C(=O)OC(C)C#N)c1 (stereo not drawn) | 8.5 | 0.0
Cc1ccccc1C(=O)CC#N | -42.0 | -18.0
C=CCn1c(COc2ccc(Cl)cc2)nnc1SCC(=O)N1CC(=O)Nc2ccccc21 | 8.0 | 10.0
O=C(CSc1nncn1-c1ccccc1)N1CCCC1c1ccc2c(c1)OCCO2 (stereo not drawn) | 14.0 | 2.5
CC(=O)Nc1ccc(-n2ccnc2P(=O)(O)c2ccccc2)cc1 | 12.0 | 8.0
CCOCCSc1nnc2n(-c3ccccc3)c(=O)c3ccccc3n12 | 17.5 | 4.5
CC(=O)Nc1cccc(-c2csc(C)n2)c1 | 9.5 | 12.5
Cc1cc(C)nc(NNC(=S)NC2CC3CCC2C3)n1 (stereo not drawn) | 20.5 | -3.0
COC(=O)c1cc(CSc2ncnc3sccc23)oc1C | 8.5 | 14.0
CC1=Nc2nc(N3CCCC3)c(C#N)c3c4c(nc(c23)N1)N(c1ccc(S(N)(=O)=O)cc1)C(=O)C4 | 52.5 | 14.0
Cc1ccc(C)c(N2C(=O)c3ccc(C(=O)N4CCCN(C)c5nc6ccccc6nc54)cc3C2=O)c1 | 8.0 | -2.0
O=S1(=O)CCN2N=C(C3CC3)SC2=N1 | 8.5 | 7.0
Cc1cc(C(=O)Cn2cnc3ccc(Cl)cc3c2=O)c(C)n1CC1CCCO1 (stereo not drawn) | 10.0 | 3.0
COc1ccc(-c2csc3ncnc(NCCSCc4ccco4)c23)cc1 | 10.5 | 4.5
O=C1CSC(c2ccccc2)N1C1CC1 (stereo not drawn) | 13.0 | 4.5
O=C(CNCCO)N1CCN(S(=O)(=O)c2ccc3ccccc3c2)CC1 | 6.5 | 5.0
Cc1ccc(-c2nn(-c3ccccc3)cc2C(=O)Nc2ccc3c(c2)OCO3)o1 | 16.0 | 10.0
COC(=O)/C(=C(/O)CSc1nnc(C)n1C1CCCCC1)c1nc2ccccc2[nH]1 | 4.0 | -13.0
NC1=NC(=Nc2ccc(S(N)(=O)=O)cc2)c2ccccc21 | 3.0 | 14.5

High-throughput results as filed in PubChem BioAssay.
